Source: PubChem BioAssay
Marburg entry inh = inhibitors of Marburg virus binding or cell entry; Marburg virus pseudotyped entry inhibition, cell reporter; control for the full effect not named in the record; about a third of the inactives were read at about 46 µM; Potency, µM (highest dose often 37.8 µM), for the others: at the top dose activity change, negative = inhibition, hits mostly inhibitors; hit rate 1.8% among 300,000; AID 540276; active = well fitted inhibition curve with a large enough effect; inconclusive = small, poorly fitted or top-dose-only effect, or effect the other way; inactive = flat fitted curve, though single readings scatter; tested in HEK293 cells; about a fifth of its hits are not listed in these tables; note: % is set by controls: 0 for no effect and ±100 for the full control effect; luciferase read-out
SARS PLpro yeast = SARS-CoV PLP inhibition in yeast; Potency, µM (series often up to 32.9 µM), without a hit: at the top dose activity, positive = growth rescue; hit rate 0.19% among 330,000; S. cerevisiae expressing SARS-CoV PLpro, growth rescue; control for the full effect not named in the record; active means well fitted rising curve with a large enough effect; inconclusive means small, poorly fitted or top-dose-only effect; inactive means no such curve, though single readings can be large or run the other way; note: 0% is about no effect; nearly all actives have a fitted effect of over 55% in size; growth read by luminescence after 48 h
2A StopGo = FMDV 2A StopGo reporter, luciferase signal; human cells with a luciferase reporter of 2A StopGo recoding; control for the full effect not named in the record; Potency, µM (top dose mostly 57.9 µM), for inactives: at the highest dose signal change, negative = less light; hit rate 1.2% among 410,000; AID 1159524; active = well fitted falling curve with a large enough effect; inconclusive = small, poorly fitted or top-dose-only effect; inactive = no such curve, though single readings can be large or run the other way; tested in HEK293T cells; note: % is set by controls: 0 for no effect and ±100 for the full control effect; nearly all actives have a fitted effect of over 45% in size; luciferase light after 4 h
Lassa entry inh = blocks Lassa virus binding to or entry into cells; Lassa virus pseudotype entry inhibition, cell reporter; control for the full effect not named in the record; Potency, µM (series often up to 37.9 µM), for inactives: top-dose activity change, negative = inhibition, actives largely listed as inhibitors; hit rate 1.2% among 300,000; AID 540256; active means well fitted inhibition curve with a large enough effect; inconclusive means small, poorly fitted or top-dose-only effect, or effect the other way; inactive means flat fitted curve, though single readings scatter; tested in HEK293 cells; note: % is set by controls: 0 for no effect and ±100 for the full control effect; nearly all actives have a fitted effect of over 50% in size; luciferase read-out
Cruzain inh Det = cruzain (T. cruzi) inhibition with detergent. P25779. purified cruzain, Z-FR-AMC fluorescence, 0.01% Triton. Potency, µM, for the others: max response, negative = inhibition, most hits filed as inhibitors. hit rate 0.43% among 200,000. AID 1478;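 note: plate controls were neutral wells for no effect and buffer without enzyme for full effect; nearly all actives have a fitted effect of over 40% in size; top concentration of the series not given in the record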
Target sequence (P25779 123-467 limits assumed): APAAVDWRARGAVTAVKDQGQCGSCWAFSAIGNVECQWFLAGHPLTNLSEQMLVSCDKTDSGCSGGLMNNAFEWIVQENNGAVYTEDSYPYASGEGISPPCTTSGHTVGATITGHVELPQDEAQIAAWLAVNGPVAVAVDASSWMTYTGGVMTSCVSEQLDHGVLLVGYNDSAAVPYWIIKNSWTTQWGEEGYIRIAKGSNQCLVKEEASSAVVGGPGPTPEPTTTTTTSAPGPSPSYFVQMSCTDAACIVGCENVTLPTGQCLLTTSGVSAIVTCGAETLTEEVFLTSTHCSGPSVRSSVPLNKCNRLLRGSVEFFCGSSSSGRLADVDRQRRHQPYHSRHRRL
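Enzyme 1.5 nM, Z-FR-AMC 2 uM, NaOAc 100 mM pH 5.5, DTT 5 mM, Triton X-100 0.01%; 15 min RT compound preincubation; kinetic ex360/em450, 60 s delta.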
RE007 growth inh = less growth of the S. pombe RE007 Vpr strain; S. pombe RE007 Vpr strain, BacTiter-Glo ATP luminescence, 24 h; control for the full effect not named in the record; Potency, µM (doses to about 92.2 µM), inactives show at the highest dose activity change, negative = less growth; hit rate 0.21% among 360,000; AID 651644; active = well fitted falling curve with a large enough effect; inconclusive = small, poorly fitted or top-dose-only effect; inactive = no such curve, though single readings can be large or run the other way;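 note: % is set by controls: 0 for no effect and ±100 for the full control effect; nearly all actives have a fitted effect of over 50% in size; the assay follows cell death caused by Vpr and the record does not say whether a fall means rescue or toxicity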
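Fission yeast RE007 carrying one integrated HIV-1 vpr copy, seeded at OD 0.01 in PMG+AL medium with 23 nL pinned compound. Grown 24 h at 30 degrees; viability read by BacTiter-Glo luminescence after 5 min.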
Cruzain inh noDet = inhibitors of Trypanosoma cruzi cruzain without detergent | AID 1476 | P25779 | Potency, µM, inactives show max response, negative = inhibition, actives largely listed as inhibitors | purified cruzain, Z-FR-AMC fluorescence, no detergent | hit rate 2.3% among 200,000;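 note: plate controls were enzyme without inhibitor for no effect and buffer without enzyme for full effect; nearly all actives have a fitted effect of over 40% in size; top concentration of the series not given in the record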
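Purified cruzain at 1.5 nM, pre-incubated 15 min with compound at room temperature in 100 mM sodium acetate pH 5.5, 5 mM DTT, 0.00005% Triton X-100. Reaction started with 2 uM Z-FR-AMC; AMC fluorescence increase over 60 s gives rate.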
NS1 function inh = influenza NS1 inhibition | S. cerevisiae slowed by influenza A NS1, growth recovery by OD600 | Potency, µM (highest dose often 46.1 µM), inactives show at the top dose activity, positive = more growth | hit rate 0.4% among 270,000 | AID 2326; active means well fitted rising curve with a large enough effect; inconclusive means small, poorly fitted or top-dose-only effect; inactive means no such curve, though single readings can be large or run the other way; note: nearly all actives have a fitted effect of over 50% in size
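A cell-based growth assay was used: compounds that relieve NS1-induced slow growth of budding yeast raise OD600. Assay medium was yeast nitrogen base with ammonium sulphate and -URA supplement, pH 6.0, with 2% galactose.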
Starred values were filed as active, the others as inactive; u = inconclusive; x = no result given; & = joins results of further samples; [ ] = dose if it differs, or a comment. Unless noted, calls come from the whole dose curve; as a rule, active = well fitted curve in the direction sought with a large enough effect; inconclusive = small, poorly fitted or top-dose-only effect, or another doubt; inactive = no such curve, though single readings can be large; an effect the other way counts as inactive or inconclusive. Potency is the fitted concentration of half-maximal effect.

Every second line gives: Marburg entry inh | SARS PLpro yeast | 2A StopGo | Lassa entry inh | Cruzain inh Det | RE007 growth inh | Cruzain inh noDet | NS1 function inh
- CC(C)[C@H](NC(=O)Cc1ccccc1)C(=O)OCc1cc(=O)n2c(n1)sc1ccccc12
    8.5% | 29.3% | -5.2% | 19.8% | -8.2% | -4.8% | 3.9% | -14.6%
- Cc1cc(NC(=O)CSc2nnnn2-c2ccccc2F)no1
    4.3%[46.1 µM] | -1.4% | -11.5% | x | x | 25.4% | x | -2.4%
- COc1ccc(C(=O)Nc2ccccc2C(=O)NCC2CCCO2)cc1 (stereo not given)
    25.7% | 7.6% | 1.0% | -19.3% | x | -2.9% | x | -37.9%
- O=C(Nc1cccc(Cl)c1)OCC#CCN1CCCC1
    -15.9% | x | 9.1% | 16.9% | x | -5.5% | x | x
- NC(=O)NC(=O)CSc1nnc(-c2ccco2)n1Cc1ccccc1
    18.9% | 0.2% | -12.8% | 0.3% | -2.7% | -7.1% | -2.0% | -5.2%
- C/C(=N\NC(=O)CSc1nc2nc(C)cc(C)n2n1)c1ccccc1
    16.4% | x | x | -0.6% | 5.6% | 6.5% | 4.7% | -1.9%
- Cc1cccc(OCCCC(=O)Nc2ccc(N3CCOCC3)cc2)c1
    10.5% | 5.1% | x | 4.4% | 6.1% | -8.0% | -9.6% | 8.1%
- CC(C)(C)NC(=O)c1ccc(Sc2ccccc2)c([N+](=O)[O-])c1
    -19.6% | -5.1% | -10.6% | -25.7% | -1.0% | 9.8% | -3.4% | -8.8%
- Cc1cc(N2CC(=O)N(CCc3ccccc3)C(=O)C2)n2ncnc2n1
    u | x | -27.4% | 4.1% | 5.6% | -17.4% | 2.6% | -3.6%
- COc1ccc(/C=C/C(=O)NCCN2CCOCC2)cc1OC
    12.2% | -0.4% | 1.8% | 2.8% | x | -6.5% | x | x
- Cc1ccc(C(=O)N2CC=C(c3ccccc3)CC2)s1
    3.7%[46.1 µM] | 1.5% | 17.6% | u | x | 7.4% | x | x
- Cc1ccc(C(=O)CC(=O)c2ccccc2C)c(O)c1
    u | 1.2% | 26.2% | u | x | -11.6% | x | -10.3%
- NC(=O)c1ccsc1NC(=O)COC(=O)c1cccnc1Cl
    4.7% | 0.6% | 0.0% | 14.5% | x | -3.5% | x | x
- COCCCNC(=O)Cc1c(C)c2c(cc(C)c3c(C)c(C)oc32)oc1=O
    -3.6%[46.1 µM] | 1.0% | -9.0% | -5.0%[46.1 µM] | x | 1.7% | x | -3.1%
- Clc1cc(Br)ccc1OCCOCCN1CCCC1
    x | -6.5% | -9.7% | x | x | -7.2% | x | 0.9%
- O=C(O)c1cccnc1Cl
    -0.7% | -13.6% | -14.9% | -0.7% | -0.1% | 11.7% | 1.1% | 13.4%
- Cc1ccc(S(=O)(=O)Cc2ccccc2Cl)cc1
    u | 8.6% | 22.8% | x | -0.8% | 0.1% | -4.9% | -9.3%
- COc1ccc(CC(=O)Nc2ccc(-c3nc4ccccc4s3)c(C)c2)cc1OC
    x | x | -27.3% | u | 1.4% | x | -9.1% | x
- CCc1cccc(C)c1NC(=S)N(CCN(C)C)C(C)c1ccco1 (stereo not given)
    x | 2.2% | -1.5% | x | x | -4.7% | x | -1.9%
- O=C(NCc1ccccc1)c1cccc(Br)n1
    10.7% | -0.1% | 10.3% | 9.4% | -2.4%&1.4% | 5.8% | 2.0%&0.2% | -7.4%
- Cc1c(C)c2ccc(OCC(=O)Nc3ccccn3)cc2oc1=O
    x | 6.7% | -19.3% | x | x | 0.6% | x | -6.4%
- CCOC(=O)c1[nH]c2ccccc2c1NC(=O)c1ccc(S(=O)(=O)N2CCOCC2)cc1
    9.6% | 5.6% | -23.6% | 9.0% | -4.0% | 6.4% | u | 20.4%
- CCO[C@@H]1OC(C(=O)NCc2ccccc2)=C[C@H](c2coc3ccccc3c2=O)[C@H]1CCCO
    x | 0.4% | 8.4% | x | x | 9.1% | x | -3.7%
- NC(=O)c1cc2ccccc2o/c1=N/NC(=O)c1cccc(F)c1
    -5.1%[46.1 µM] | -1.0% | -6.6% | 6.3%[46.1 µM] | x | 7.0% | x | u
- O=C1N(Cc2cccc(Cl)c2)C[C@@H]2C[C@@H](c3ccc4nonc4c3)N3CCC[C@@]123
    x | -0.6% | -2.5% | x | x | -25.1% | x | -13.1%
- O=C(Cc1cccs1)NC1CC(=O)N(c2ccc(F)cc2)C1 (stereo not given)
    x | x | -7.6% | -5.1%[46.1 µM] | 0.5% | x | -8.4% | x
- Nc1ccc(OC(=O)Nc2ccc(O)cc2)cc1
    u | -0.8% | u | u | x | -2.3% | x | 6.3%
- CCOC(=O)C1CCN(CCC(=O)Nc2ccccc2Cl)CC1
    22.6% | -12.1% | -10.3%&-4.6% | -8.0%[46.1 µM] | 0.2%&0.1% | 4.9% | 12.7%&-2.2% | 0.0%
- COCCCNC(=S)Nc1ccc(CC(=O)O)cc1
    -0.7% | 21.2% | -23.1% | 8.4% | -0.4% | 5.3% | 6.3% | 24.9%
- COc1ccc(C(=O)OCCCOC(=O)c2ccc(OC)cc2OC)c(OC)c1
    12.5% | -4.3% | -13.4% | -14.5% | x | -15.0% | x | 2.1%
- Cc1cccc(NC(=O)C2CCN(C(=O)c3ccco3)CC2)c1C
    10.1%[46.1 µM] | -4.2% | -1.3% | 21.5% | x | 7.7% | x | 4.0%
- COc1ccccc1-c1c(-c2ccc(OCC(=O)NN)cc2O)n[nH]c1C(F)(F)F
    u | -0.1% | u | -8.5% | -4.2% | -2.7% | 15.6% | u
- COc1cccc(C(=O)NCC(c2ccc3c(c2)OCO3)N2CCN(C)CC2)c1 (stereo not given)
    x | x | -8.0% | 1.3%[46.1 µM] | 3.9% | x | -8.4% | x
- O=C(NN1CCN(Cc2ccccc2)CC1)c1ccc(N2CCOCC2)c([N+](=O)[O-])c1
    0.7%[46.1 µM] | -2.2% | -12.0% | -21.2%[46.1 µM] | x | 1.4% | x | x
- Cc1c(Nc2nc(-c3ccccc3)cs2)c(=O)n(-c2ccccc2)n1C
    u | 3.3% | 3.9% | 14.4% | -1.0% | 4.6% | -10.1% | -2.0%
- O=C(NCc1cccs1)C(=O)NCC(c1ccco1)N1CCN(c2ccc(F)cc2)CC1 (stereo not given)
    u | -3.8% | u | u | x | -6.3% | x | x
- COc1cc(OC)c(S(=O)(=O)Nc2ccc(C(=O)N3CCCC3)cc2)cc1NC(C)=O
    -7.1%[46.1 µM] | -0.3% | 7.1% | -18.6%[46.1 µM] | x | 9.9% | x | x
- CC(=O)Nc1cc(C(=O)OCC(=O)c2ccccc2)ccc1C
    10.3% | 0.6% | -8.1% | u | 0.6% | 15.1% | 3.0% | 3.6%
- Cc1sc2nc(CN3CCN(c4ccc(O)cc4)CC3)[nH]c(=O)c2c1C
    x | -0.7% | -16.7% | x | x | 14.1% | x | 0.0%
- Cc1ccc(-n2ncc3c(N4CCN(c5ccccc5)CC4)ncnc32)cc1C
    x | x | u | 9.9%[46.1 µM] | 1.3% | x | -10.2% | x
- O=[N+]([O-])c1cc([N+](=O)[O-])c2cc3ccccc3nc2c1
    u | -13.0% | 28.2µM* | u | x | u | x | -56.8%
- CC(C)c1nn2c(=O)cc(COC(=O)C3CCCCC3)nc2s1
    x | x | 23.6% | 10.1%[46.1 µM] | -6.3% | x | 3.0% | x
- Cc1ccc(CNC(=O)CSc2nnc3c(n2)[nH]c2ccccc23)cc1
    -1.4%[46.1 µM] | -0.3% | 17.3% | -28.0%[46.1 µM] | x | 3.2% | x | -8.7%
- CCn1cc(C2=NC(CCSC)CO2)c2ccccc21 (stereo not given)
    2.1%[46.1 µM] | 1.6% | 7.1% | 1.2% | x | 12.2% | x | x
- CCCCn1c(=O)c2oc3ccccc3c2n(Cc2cccc(C)c2)c1=O
    x | x | -9.7% | 15.6%[46.1 µM] | -0.2% | x | 2.2% | x
- O=C(c1ccc([N+](=O)[O-])cc1)N(Cc1ccco1)c1ccccn1
    -17.2%[46.1 µM] | x | -13.7% | 1.7%[46.1 µM] | -3.1% | x | -4.3% | x
- Cc1ccc(/C=N/NC(=O)Cc2ccc(Cl)cc2)s1
    10.9%[46.1 µM] | 3.1% | u | 7.9%[46.1 µM] | x | 7.0% | x | 0.9%
- Cn1c(N2CCN(c3ccccn3)CC2)nc2c1c(=O)n(Cc1ccccc1Cl)c(=O)n2C
    -1.9%&-1.9%&-1.9% | x | -21.9% | 18.0% | x | 6.1% | x | x
- CN(C)CCCNCCCNC(=O)/C(=N\O)c1ccccn1
    -6.1% | 8.7% | -17.1% | 7.7% | 0.3% | -13.5% | -12.4% | -10.9%

Of the compounds above, six have a thiophene ring, fused or not:
Every second line gives: Marburg entry inh | SARS PLpro yeast | 2A StopGo | Lassa entry inh | Cruzain inh Det | RE007 growth inh | Cruzain inh noDet | NS1 function inh
- Cc1ccc(C(=O)N2CC=C(c3ccccc3)CC2)s1
    3.7%[46.1 µM] | 1.5% | 17.6% | u | x | 7.4% | x | x
- NC(=O)c1ccsc1NC(=O)COC(=O)c1cccnc1Cl
    4.7% | 0.6% | 0.0% | 14.5% | x | -3.5% | x | x
- O=C(Cc1cccs1)NC1CC(=O)N(c2ccc(F)cc2)C1 (stereo not given)
    x | x | -7.6% | -5.1%[46.1 µM] | 0.5% | x | -8.4% | x
- O=C(NCc1cccs1)C(=O)NCC(c1ccco1)N1CCN(c2ccc(F)cc2)CC1 (stereo not given)
    u | -3.8% | u | u | x | -6.3% | x | x
- Cc1sc2nc(CN3CCN(c4ccc(O)cc4)CC3)[nH]c(=O)c2c1C
    x | -0.7% | -16.7% | x | x | 14.1% | x | 0.0%
- Cc1ccc(/C=N/NC(=O)Cc2ccc(Cl)cc2)s1
    10.9%[46.1 µM] | 3.1% | u | 7.9%[46.1 µM] | x | 7.0% | x | 0.9%
